Mtb bLac sens: beta-lactam sensitization of Mtb H37Rv; 330,000 compounds, 0.27% hits; inhibition, % at 25 µM; AID 434955; M. tuberculosis H37Rv growth with meropenem, percent inhibition; hits of this screen are not shown here;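 active = about 74% or more and at least 40 points above the plate without the antibiotic, then above 30% in a dose series; inconclusive = first-round hits that could not be retested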;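 note: growth measured after seven days incubation then overnight dye step; 0% = bacteria only wells and 100% = bacteria with antibiotic; twin plates without the antibiotic show which effects depend on it; some results filed as inactive read as strong as hits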
YopH inh: blocks Yersinia enterocolitica YopH tyrosine phosphatase; AID 898; 140,000 compounds, 0.16% hits; inhibition, %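 (about 10 µM by stock and volumes)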; fluorescence Ex485/Em525;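 active = inhibition of 50% or more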;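 note: controls were vehicle for no effect and minimum signal wells for full effect; inactives centre near -20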
RecA splice inh: inhibitors of M. tuberculosis RecA intein splicing. inhibition, %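 (about 9 µM by stock and volumes)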. 290,000 compounds, 0.75% hits. cell-free RecA intein splicing, fluorescence. P9WHJ3; in the data active = inhibition above about 30%; inconclusive = no clear call, values can overlap the other calls;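 note: 0% = vehicle wells and 100% = reference inhibitor control wells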
Target sequence (P9WHJ3 whole entry, looked up, canonical isoform): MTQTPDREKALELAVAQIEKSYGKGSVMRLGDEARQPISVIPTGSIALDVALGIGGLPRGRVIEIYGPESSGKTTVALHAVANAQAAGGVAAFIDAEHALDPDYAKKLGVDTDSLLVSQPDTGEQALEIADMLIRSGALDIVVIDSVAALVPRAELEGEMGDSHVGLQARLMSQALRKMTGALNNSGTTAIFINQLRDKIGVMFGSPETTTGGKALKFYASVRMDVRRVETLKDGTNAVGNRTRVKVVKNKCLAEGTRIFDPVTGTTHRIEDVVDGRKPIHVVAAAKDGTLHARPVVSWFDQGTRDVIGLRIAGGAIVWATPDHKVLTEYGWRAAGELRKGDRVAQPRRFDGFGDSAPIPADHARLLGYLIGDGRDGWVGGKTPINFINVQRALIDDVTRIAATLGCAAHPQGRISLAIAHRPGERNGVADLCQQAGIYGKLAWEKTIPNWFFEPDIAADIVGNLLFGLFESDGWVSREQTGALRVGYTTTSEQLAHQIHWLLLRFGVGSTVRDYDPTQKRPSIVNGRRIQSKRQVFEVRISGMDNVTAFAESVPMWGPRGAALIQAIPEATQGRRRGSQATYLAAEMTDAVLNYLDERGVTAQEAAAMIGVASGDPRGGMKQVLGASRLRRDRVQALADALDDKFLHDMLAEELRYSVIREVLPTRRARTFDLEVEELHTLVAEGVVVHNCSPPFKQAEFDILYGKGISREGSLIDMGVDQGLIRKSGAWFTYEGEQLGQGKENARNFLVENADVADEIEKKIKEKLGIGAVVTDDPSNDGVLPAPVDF
Arbovirus anti: antivirals against arbovirus infection | arbovirus infection cell-based antiviral screen | 200,000 compounds, 0.37% hits | inhibition, % at 10 µM;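 active = inhibition from about 30%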;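 note: bluetongue infection of BSR cells; cell survival read as ATP light after 72 h; 0% = infected wells without compound and 100% = uninfected wells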
Mtb growth: M. tuberculosis H37Rv growth inhibitors, H37Rv strain (AID 1626) | inhibition, % at 10 µM, or IC50 in µM where a hit was titrated | 220,000 compounds, 0.95% hits | M. tuberculosis H37Rv growth inhibition; higher % means a stronger effect;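 active = confirmed in a dose series; inconclusive = inhibition above 80% but not taken into the dose series; inactive = below 80% or under 30% at every dose of the series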;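 note: bacteria incubated seven days before Alamar blue readout; 0% = bacteria only wells and 100% = bacteria with antibiotic wells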
Arbovirus anti repeat: also measured in Arbovirus anti; calls as there; inhibition, %; measured here: 10K subset replicate screen; many hits read low in the repeat;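 first of two repeat runs on a subset; 0% = infected and 100% = uninfected wells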
* marks the source's active call; other numbers are inactive results; ? = inconclusive; . = not tested or not shown. A portion of the library; the hit share may differ from the screen's.

Sample of the layout (2 entries):
SMILES	Mtb bLac sens	YopH inh	RecA splice inh	Arbovirus anti	Mtb growth	others
O=S(=O)(c1ccc(F)cc1)N(CCO)CC(O)Cn1c2ccccc2c2ccccc21 (stereo not given)	1	-21	3.9	-48	4%
O=c1[nH]cc(S(=O)(=O)N2CCN(c3cccc(C(F)(F)F)c3)CC2)c(=O)[nH]1	4	.	-1.3	.	.

Main list, previewed entries included:
SMILES	Mtb bLac sens	YopH inh	RecA splice inh	Arbovirus anti	Mtb growth	others
O=S(=O)(c1ccc(F)cc1)N(CCO)CC(O)Cn1c2ccccc2c2ccccc21 (stereo not given)	1	-21	3.9	-48	4%
O=c1[nH]cc(S(=O)(=O)N2CCN(c3cccc(C(F)(F)F)c3)CC2)c(=O)[nH]1	4	.	-1.3	.	.
CCOC(=O)N1CCN(S(=O)(=O)N2CCCC(C(=O)NCCc3ccccc3)C2)CC1 (stereo not given)	2	.	-3.1	.	.
O=C(Nc1ncccn1)C1CCCCC1	3	.	1.7	-3	-3%
CCNC(=S)NNC(=O)c1cccnc1	3	-36	-2.3	3	-9%
COCCn1c(Cc2ccccc2)nnc1SCC(=O)N1CCCCC1C (stereo not given)	0	3	1.8	5	-3%
O=C(CCSc1ccc(Cl)cc1)N1CCOCC1	6	-38	-0.1	-1	-10%
Cc1cc(=O)oc2cc(OC(C)C(=O)Nc3ccc(N4CCOCC4)cc3)ccc12 (stereo not given)	10	-27	-1.1	0	-2%
Cc1ccc(N/C=C2\CCCCC2=O)c(C)c1	7	-26	.	-6	0%
Cc1cc(C(F)(F)F)n2ncc(-c3ccccc3)c2n1	-6	0	2.3	-4	-9%
N/C(=N\OC(=O)c1ccoc1)c1ccc(Br)cc1	-7	.	1.8	.	.
CCCC(C(=O)NC1CCCC1)N(CCN(CC)CC)C(=O)c1snc(C(N)=O)c1N (stereo not given)	-8	.	-4.4	.	.
Cc1ccc(O)c(C(=O)c2cnn(C(=O)COc3ccc(Cl)cc3)c2)c1	4	-9	-0.7	-2	2%
CCOc1ccc2[nH]c3c(NCCCOC)ncnc3c2c1	9	.	2.2	.	.
OCCC1CN(Cc2cccc(-c3ccco3)c2)CCN1Cc1ccsc1 (stereo not given)	3	.	5.2	-8	1%
COCCCn1c(-c2ccc(OC)cc2)cc(C(=O)NC2CCCCCCC2)c1C	83	-28	11	-10	78%
CCOc1ccccc1NC(=O)CCCN1C(=S)NC(C)(C)CC1C (stereo not given)	-2	-28	1.5	4	0%
C=C(C)c1cccc(C(C)(C)NC(=O)Nc2ccc(C(C)=O)cc2)c1	-5	12	0.3	10	22%
CCSc1nnc(NC(=O)C(C)(C)C)s1	0	-14	-2.1	0	7%
O=C(CNC(=O)c1ccccc1Cl)N/N=C/c1ccc2c(c1)OCO2	-1	.	-5.4	.	.
COc1ccc(C(C(=O)NC(C)(C)C)N(Cc2cccnc2)C(=O)CCC(=O)Nc2cc(C)on2)cc1 (stereo not given)	4	.	0.7	.	.
COc1ccc(NC(=O)C2CC(c3c(F)cccc3Cl)=NO2)cc1 (stereo not given)	-9	.	0.4	.	.
O=C(NC(NC1CCS(=O)(=O)C1)C(Cl)(Cl)Cl)c1ccc(Br)cc1 (stereo not given)	-11	1	0.8	10	-7%
Clc1cc(Cl)cc(CN2CCSCC2)c1	-8	.	1.0	.	-6%
C=CCNC(=S)N(CC)c1cccc2ccccc12	-5	.	0.1	2	2%
CNC(=O)CSc1nnc(-c2ccc3c(c2)OCO3)n1C	3	.	-3.0	1	-7%
CCCn1c(N)c(N(CCOC)C(=O)c2cc3c(s2)CCCCC3)c(=O)[nH]c1=O	-15	.	1.7	.	.
O=C(c1cccc(Cl)c1)N1CCn2c1nc1ccccc12	-7	.	-1.4	-1	4%
C=CCNC(=O)NC(=O)c1csc([N+](=O)[O-])c1	-4	.	0.3	.	-2%
CC1(C)Cc2c(c(N3CCCC3)[nH]c(=S)c2C#N)CO1	-9	-16	2.0	1	.
CCCCN(C(=O)c1cccc(S(=O)(=O)N2CC(C)OC(C)C2)c1)c1c(N)n(CCCC)c(=O)[nH]c1=O (stereo not given)	-13	.	-0.7	.	.
O=C(Nc1c2c(nc3c1CCC3)CCCC2)c1ccccn1	-1	-7	-1.3	5	-1%
Cc1ccc(-c2nnn(CC(=O)NCCC3=CCCCC3)n2)cc1	-9	-6	-0.3	0	4%
CC[C@@]12C(=O)N(c3cccc(F)c3)C(=O)N1[C@H](c1ccc(F)cc1)[C@@H]1C(=O)N(C3CCCCC3)C(=O)[C@@H]12	-10	.	3.2	.	.
O=C1CS(=O)CN1c1ccc(Oc2ccccc2)cc1 (stereo not given)	0	.	0.3	4	-4%
COc1ccc(Cl)cc1NC(=O)c1cnc2sccn2c1=O	6	-29	-2.1	-6	6%	Arbovirus anti repeat=-7
COc1ccc(C(=O)N2CCCC(CNC(=O)c3ccccc3Cl)C2)o1 (stereo not given)	3	.	0.7	.	.
COc1cc2c(cc1OC)CN(CC(=O)Nc1ccc(Cl)c(S(=O)(=O)N(C)C)c1)CC2	8	.	-12	5	0%
O=c1[nH]c(=O)n(-c2cccc(Cl)c2)c(O)c1C=NCCN1CCCCC1	-2	-20	2.3	-4	-6%
Cc1ccc(-c2nn(CC(=O)O)c(=O)c3ccccc23)cc1	5	-27	5.1	5	1%	Arbovirus anti repeat=4
CSC1=NSC2=NC(=O)/C(=C/c3coc4ccc(O)cc4c3=O)C(=N)N12	6	17	-3.4	-13	-1%
COc1ccc(CNC(=O)C2CC(c3ccc(F)cc3)=NO2)cc1 (stereo not given)	-1	-36	-1.5	-3	5%
CCCc1nnc(SCC(=O)N2CCCCC2)n1CC1CCCO1 (stereo not given)	-2	-23	-3.7	4	3%
Cc1c(C(C)(C)O)[nH]c2ccc(C(F)(F)F)cc12	89	.	-3.7	.	.
Cc1sc(NC(=O)c2ccc(Br)s2)c(C(N)=O)c1C	14	-14	-4.7	-13	7%
CCCn1c2c(c(O)c(C(=O)Nc3ccc(OC)cc3)c1=O)CCCC2	47	-39	-2.1	22	10%
Cc1ccc2c(c1)C1CN(C)CCC1N2C(=S)NC(=O)c1ccc(Br)cc1 (stereo not given)	44	.	5.1	-5	20%
COC(=O)C1=C[C@@H](C(=O)OC)[C@@H]2C3=C(C(=O)[C@@]2(C)NC(=O)c2ccccc2)[C@H](C)n2c(=O)n(C)c(=O)n2[C@@H]3C1	-7	.	0.5	.	1%
COc1ccc(-n2c(O)c(C=NCc3ccc4c(c3)OCO4)c(=O)[nH]c2=O)cc1	-3	.	-7.6	.	-2%
Cc1ccccc1NS(=O)(=O)c1cc(C(=O)Nc2cccnc2)ccc1C	-1	.	0.4	.	.
CCc1cc(C(=O)Cc2nc3ccccc3s2)c(O)cc1OCC(=O)O	14	.	-9.9	.	0%
O=C(Nc1cccnc1)/C(N=Nc1cccnc1)=C(\O)c1ccccc1	-2	-15	3.1	24	10%
CCN(CCCNC(=O)CCNC(=O)Cn1ccc2ccccc2c1=O)c1ccccc1	.	32	-3.4	7	-8%
Cc1ccc(S(=O)(=O)N(C)CC(=O)OCc2nnc(-c3ccccc3)o2)cc1	-4	-32	-0.1	-2	-6%
CCn1c(CCc2ccccc2)n[nH]c1=S	-3	.	-0.4	2	-1%
O=C(NCCc1ccccn1)C1CCN(S(=O)(=O)c2ccc(Cl)cc2)CC1	0	.	-1.6	-8	7%
COC(=O)c1cc(CSc2nc3ccccc3[nH]2)oc1C	3	1	2.0	9	4%
CC(=O)Nc1ccc(NC(=S)Nc2ccc(F)cc2)cc1	3	.	1.9	2	-6%
CC(SCc1ccccc1)C(=O)N/N=C/c1cccs1 (stereo not given)	-1	23	0.5	9	3%
COc1cc(/C=C2\SC(=O)NC2=O)ccc1OCc1ccc(Cl)nc1	0	.	-9.1	.	.
(more compounds)
SMILES	Mtb bLac sens	YopH inh	RecA splice inh	Arbovirus anti	Mtb growth	others
COc1ccc(C2CC2/C(C)=N/OC(=O)c2cccs2)cc1 (stereo not given)	97	-15	8.5	2	-4%
CCn1c(SCC(=O)N=Nc2c(O)[nH]c3ccccc23)nc2ccccc21	-2	-16	1.1	-11	2%
COc1cc2c(cc1OC)C(c1ccc(-c3ccccc3Cl)o1)=NCC2	20	5	-23	-39	10%
COc1ccc(CNC(=O)c2cc3c(s2)CS(=O)C3)cc1 (stereo not given)	-2	-40	0.3	-3	5%
CC(=O)Nc1ccc(NS(=O)(=O)C(F)(F)F)cc1	-12	-5	2.2	4	-16%
CCOC(=O)C(=O)Nc1ccccc1C#N	-16	-31	0.8	7	-11%
CCOC(=O)c1ccc(Nc2cc(C)nc3ncnn23)cc1	98	-19	3.0	1	?
Cc1ccc(C(=O)Nc2ccc3c(c2)OCO3)cc1S(=O)(=O)N1CCOCC1	-3	.	-0.9	.	.
O=C(CC(C(=O)O)c1ccccc1)c1cccs1 (stereo not given)	-1	.	0.3	.	-8%
CCc1nn(CC(=O)NCCC(C)C)c(=O)c2cc3c(OC)cccc3n12	7	.	-7.2	.	.
COc1ccccc1NS(=O)(=O)c1cc(NC(=O)/C=C/c2cccs2)ccc1N1CCOCC1	-2	-14	-2.3	2	14%
CC(=O)Cc1nsc(Nc2ccc(C)cc2)n1	7	.	-8.3	-2	-6%
Cc1ccc(S(=O)(=O)Nc2cccc(C(=O)NCCCn3ccnc3)c2)cc1F	-3	.	0.9	.	.
O=C(c1ccc(NC(=S)NCc2ccco2)cc1)N1CCOCC1	-5	.	0.2	4	-1%
CC1CCc2c(sc(NC(=O)C3c4ccccc4Oc4ccccc43)c2C(N)=O)C1 (stereo not given)	-3	-6	-1.7	-7	3%
CC(C)c1ccc(NC(=O)c2snc3ccc(Cl)cc23)cc1	96	-24	0.3	-6	3.9µM*
Cc1onc(-c2ccccc2Cl)c1C(=O)NC(C)c1ccccc1 (stereo not given)	1	.	1.2	.	.
Cc1ccc(C(=O)NNC2=Nc3cc([N+](=O)[O-])ccc3OC2)cc1	-6	.	-1.7	.	-14%
Cc1[nH]c2ccccc2c1/C=N\NC(=O)Cn1nnc(-c2ccccc2)n1	3	-17	-0.8	-6	-2%
Oc1ccc(F)c2cccnc12	100	.	-0.5	5	45%

An excerpt from above in order of molar mass, rising.
SMILES	Mtb bLac sens	YopH inh	RecA splice inh	Arbovirus anti	Mtb growth	others
COc1ccc(C2CC2/C(C)=N/OC(=O)c2cccs2)cc1 (stereo not given)	97	-15	8.5	2	-4%
Cc1ccc(C(=O)NNC2=Nc3cc([N+](=O)[O-])ccc3OC2)cc1	-6	.	-1.7	.	-14%
CC(C)c1ccc(NC(=O)c2snc3ccc(Cl)cc23)cc1	96	-24	0.3	-6	3.9µM*
COc1ccccc1NS(=O)(=O)c1cc(NC(=O)/C=C/c2cccs2)ccc1N1CCOCC1	-2	-14	-2.3	2	14%

Carrying on:
SMILES	Mtb bLac sens	YopH inh	RecA splice inh	Arbovirus anti	Mtb growth	others
CCCCn1nnc(NC(=O)COc2cc(C)ccc2C(C)C)n1	71	-61	-0.7	-3	13%
COc1ccc(CCN2CC(C(=O)NCCc3ccccc3C)CCC2=O)cc1 (stereo not given)	-1	.	-1.1	.	.
Cc1ccccc1-c1nc(CS(=O)(=O)CC(=O)NC2CC2)c(C)o1	1	.	0.8	.	.
CN1C(=O)NC(=O)[C@]2(Cc3ccccc3N3CCN(c4ccccc4)CC32)C1=O (stereo not given in full)	-9	0	-0.5	6	-5%
COc1c2ccccc2c(OC)c2ccccc12	-2	.	-3.6	-4	5%
C/C(=C\c1cccs1)C(=O)c1c(C)cc(C)[nH]c1=O	0	.	0.0	.	-7%
C[C@H](NC(=O)C1CCC(CNC(=O)[C@@H]2CCCN2C(=O)OC(C)(C)C)CC1)C(=O)O (stereo not given in full)	-2	.	0.4	.	.
CC(C)COC(=O)Nc1ccccc1C(=O)N1CCOCC1	-12	13	-0.9	-4	-1%
O=S(=O)(Cc1c(F)cccc1Cl)c1ncn[nH]1	-6	.	-0.4	-2	4%
O=C(O)C(Cc1ccccc1)NC(=O)C(Cc1ccccc1)NC(=O)C12CC3CC(CC(C3)C1)C2 (stereo not given)	-4	.	1.6	.	.
COc1ccccc1-n1c(SCC(=O)c2ccc(O)cc2O)nc2cc([N+](=O)[O-])ccc21	7	-24	2.6	-30	-4%
O=C(O)[C@H]1Cc2ccccc2CN1S(=O)(=O)c1ccc(F)cc1	-6	.	-1.6	.	-19%
CCOC(=O)C1CCN(C(=O)CN(Cc2ccc(Cl)cc2)S(C)(=O)=O)CC1	-8	-21	6.5	4	6%
O=C(Cn1ncc2c3ccccc3n(Cc3ccc(F)cc3)c2c1=O)N1CCN(c2ncccn2)CC1	92	-10	4.2	-3	-1%
CCOC(=O)NC1(C(F)(F)F)C(=O)NC(C)=C1C(=O)OC (stereo not given)	4	-6	-2.1	3	9%
Cc1ccc(S(=O)(=O)Nc2cc(Cl)c(O)c3ncccc23)cc1	3	.	-0.4	.	.

Assay outcomes as filed in PubChem BioAssay.
